Compound activity: PubChem, several laboratories
Bfl-1 A1 inh – inhibitors of the anti-apoptotic protein A1, read as caspase activation. MEF A1-2A-BIM cells, Caspase-Glo 3/7 luminescence, 3 h; percent of clofoctol response, vehicle zero. caspase activation, % (test concentration not listed). 330,000 compounds, 0.066% hits. AID 2462;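 active means over half of replicate activation scores above 10%, or exactly half above 10 with the replicate mean above 10; inconclusive means replicate mean below 10 yet half the replicates above 10; inactive means over half of replicates below 10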;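 further: wells of about 30 µL received 50 nL stock; many hits fall short of the cut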
Beta2AR agonist – agonists of human beta-2 adrenergic receptor inducing internalization | Am2.2-beta2AR cells, FAP receptor internalization, flow cytometry; reference of the scale not given here | response, % (test concentration not listed) | 340,000 compounds, 0.43% hits | AID 504454;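 active means response above a set limit, near 3 SD of response in nonfluorescent compounds, cut at about 42% in these data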;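 further: stock transfer was 100 nL into about 11 µL; a reference agonist was the positive control; negative values mostly stem from fluorescent compounds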
Target sequence (P07550 whole entry, looked up): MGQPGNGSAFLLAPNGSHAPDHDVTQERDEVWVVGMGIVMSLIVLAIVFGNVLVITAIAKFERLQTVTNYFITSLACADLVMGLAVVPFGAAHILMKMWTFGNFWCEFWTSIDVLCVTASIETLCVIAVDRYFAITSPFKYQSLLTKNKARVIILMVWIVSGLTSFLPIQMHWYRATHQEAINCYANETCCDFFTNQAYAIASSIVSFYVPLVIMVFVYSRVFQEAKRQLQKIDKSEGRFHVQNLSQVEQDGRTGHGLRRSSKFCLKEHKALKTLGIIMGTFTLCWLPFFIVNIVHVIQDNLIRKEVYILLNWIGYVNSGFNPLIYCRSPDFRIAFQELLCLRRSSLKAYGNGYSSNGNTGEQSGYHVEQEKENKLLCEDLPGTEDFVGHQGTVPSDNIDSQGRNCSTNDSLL
Calb FLC – affects C. albicans growth with fluconazole. C. albicans CaCi-2 (fluconazole-resistant clinical isolate) + fluconazole, Alamar Blue growth, 48 h. growth inhibition, % (test concentration not listed). 300,000 compounds, 0.57% hits;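 active means most replicates above 75%; inconclusive means exactly half above 75%; inactive means most below 75%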;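 further: all wells also contain fluconazole at 8 µg/ml as a sub-toxic cotreatment; 0% = median of DMSO wells and 100% = median of geldanamycin control wells; wells of about 8 µL received 7.5 nL stock; the first replicate is given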
Beta apoptosis – blocks beta cell apoptosis. INS-1E cytokine-induced death, ATP luminescence, 48 h; percent of positive-control rescue, neutral wells zero. protection from apoptosis, % (no concentration beside the values). 300,000 compounds, 0.8% hits. AID 435005;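 active means all replicates at 75% or more, or half of them and the mean; inconclusive means half reach 75% but not the mean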;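 further: 0% = cytokine-treated negative control wells and 100% = positive control rescue; higher means more ATP so stronger rescue from cytokine killing; wells of about 40 µL received 100 nL stock; the first replicate is given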
T cruzi inh – T. cruzi replication inhibition. inhibition, % (no concentration beside the values). 300,000 compounds, 1.4% hits. T. cruzi beta-gal in NIH3T3, luminescence, 90 h;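 active means mean inhibition across valid replicates above about 55%, limit read from the data; inconclusive means mean below that limit but half or more replicates reach it; inactive means mean below it, under half of replicates reach it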;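 further: signal also drops with host cell toxicity which is not excluded here; 0% = plate median of DMSO wells and 100% = zero luminescence signal; higher percent means less beta-gal luminescence so fewer parasites; stock transfer was 50 nL into about 50 µL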
RanGTP-Impb inh – inhibitors of RanGTP-importin-beta interaction, primary screen, biochemical, FRET, CFP-Ran, YFP-importin-beta, homogeneous; 300,000 compounds, 1.1% hits; inhibition, % (no concentration beside the values); cell-free CFP-Ran/YFP-importin-beta FRET ratio;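 active means most replicates above 15%; inconclusive means exactly half above 15%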;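 further: 0% = DMSO wells and 100% = Ran loaded with GDP instead of GTP; wells of about 40 µL received 100 nL stock; the first replicate is given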
UCH37 inh – blocks the human deubiquitinase UCH37; Q9Y5K5; purified proteasome/UCH37, Ub-AMC cleavage fluorescence; inhibition, % (test concentration not listed); 330,000 compounds, 0.33% hits; AID 588478;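 active means mean of two replicates above 20%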;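 further: 0% = compound-free wells with enzyme and 100% = wells lacking proteasome; stock transfer was 100 nL into about 20 µL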
Target sequence (Q9Y5K5 whole entry, looked up): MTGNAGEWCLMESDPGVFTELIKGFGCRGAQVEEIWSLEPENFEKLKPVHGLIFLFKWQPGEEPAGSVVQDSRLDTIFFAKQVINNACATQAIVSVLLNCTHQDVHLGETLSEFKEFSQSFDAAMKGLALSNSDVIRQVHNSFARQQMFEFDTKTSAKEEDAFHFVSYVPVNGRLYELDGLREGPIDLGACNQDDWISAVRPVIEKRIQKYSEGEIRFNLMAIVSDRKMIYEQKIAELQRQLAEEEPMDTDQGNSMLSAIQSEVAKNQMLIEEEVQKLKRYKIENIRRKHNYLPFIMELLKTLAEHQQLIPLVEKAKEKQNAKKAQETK
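System: Proteasome-associated human UCH37 deubiquitinase; Input: 0.15 nM proteasome in added enzyme buffer; Also added: Ub-AMC substrate from 1 µM stock; Incubation: 30 min compound-proteasome preincubation then 25 min substrate reaction, room temperature; Detection: fluorescence, ex 355 nm, em 460 nm; Read-out: % inhibition of Ub-AMC cleavage fluorescence; Benchmarks: no-proteasome and no-compound wells.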
LANA-H2B inh – blocks KSHV LANA binding to histone H2A/H2B; cell-free LANA-H2A/H2B peptide, fluorescence polarization; Q9QR71; inhibition, % (no concentration beside the values); AID 2629; 320,000 compounds, 0.6% hits; in the data active means inhibition mostly above about 10%, no sharp cut-off; inactive means mostly below about 6.7%;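 further: stock transfer was 7.5 nL into about 10 µL; 0% = median of vehicle wells and 100% = median of positive control wells; one replicate is shown; the record names a cut of 25% in any replicate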
An asterisk follows results filed as active; ? = inconclusive; nt = no result given.

Order of results – Bfl-1 A1 inh	Beta2AR agonist	Calb FLC	Beta apoptosis	T cruzi inh	RanGTP-Impb inh	UCH37 inh	LANA-H2B inh
Cc1cccc2cc(COC(=O)C3CCCCC3)c(=O)[nH]c12
  0.3	-2.8	10.2	-3.8	-19.6	-1.3	3.9	-2.3
O=C(C[C@H]1C(=O)N(C2CCCCC2)C[C@@H]1Cc1ccccc1)Nc1ccccc1
  1.3	-8.9	7.6	2.4	10.4	1.2	0.4	0.5
CCOC(=O)c1ccc(-n2ccnc2)c(NC(=O)c2cccc(Br)c2)c1
  0.3	-8.6	-0.7	-0.3	62.6*	3.2	0.1	-1.2
CCCCNC(=O)NC1(C(F)(F)F)Oc2ccccc2O1
  -0.3	-5.6	-6.9	-1.7	-5.6	-1.1	3.4	0.4
CCN(CC)CCCNC(=S)N(Cc1cccs1)Cc1cc2cc3c(cc2[nH]c1=O)OCCO3
  2.2	0.5	18.0	-0.5	-7.8	22.1*	-76.5	-4.4
COC(=O)c1ccc(NC(=O)c2cc[n+]([O-])cc2)cc1
  0.9	0.0	0.9	2.6	-3.5	0.7	6.4	-1.2
CCOC(=O)c1c(NC(=O)CSc2cccc[n+]2[O-])sc(C(=O)Nc2ccccc2)c1C
  0.4	-8.7	-0.8	0.3	-17.4	-0.5	3.3	-6.5
c1ccc(-c2nnc(OCCN3CCOCC3)c3ccccc23)cc1
  -0.2	-9.0	-4.0	0.5	3.8	0.7	1.9	15.6
CCOc1ccc(/C=N\NC(=O)CC(=O)NCCc2ccccc2)cc1
  -0.2	-1.9	-2.1	3.8	-0.1	-1.4	nt	2.4
CSCCC(NC(=O)c1ccccc1)C(=O)OCC(=O)NCc1ccco1 (stereo unspecified)
  0.6	-2.9	nt	-1.9	nt	nt	-0.6	-5.5

Later entries.
Order of results – Bfl-1 A1 inh	Beta2AR agonist	Calb FLC	Beta apoptosis	T cruzi inh	RanGTP-Impb inh	UCH37 inh	LANA-H2B inh
COc1cccc(C2(O)CCN(C(=O)c3cccs3)CC2)c1
  0.1	-2.0	0.3	-3.3	-1.3	-4.2	0.2	-5.5
Cc1ccc(C(O)P(=O)(OC2CCCCC2)OC2CCCCC2)cc1 (stereo unspecified)
  -0.4	0.5	6.5	nt	18.9	-2.6	2.7	-2.0
CCOc1ccccc1OCCNC1CCCC1
  1.8	0.2	-40.7	-2.2	-6.5	-0.5	-1.2	144.9*
CCc1ccc(NC(=O)CNC(=O)[C@@H]2Cc3ccccc3CN2C(=O)OC(C)(C)C)cc1
  -0.4	-4.7	7.1	0.7	10.4	4.4	1.4	1.5
CC(C)(C)c1ccc(C(=O)Nc2ccc(C=C(C#N)C#N)cc2)cc1
  -0.1	10.5	-2.6	-3.1	8.3	-0.3	2.6	4.5
O=C(N/N=C/c1c(Cl)cccc1Cl)c1ccccc1F
  -1.4	2.5	-6.1	1.5	7.6	2.6	nt	-7.7
COc1ccccc1NCCC(=O)OCC(=O)Nc1ccccc1F
  -0.7	-5.7	nt	0.7	nt	nt	6.2	-1.5
CC(NC(=O)c1ccc(N)cc1)c1ccccc1 (stereo unspecified)
  -0.9	-4.9	-2.4	-0.2	-21.0	1.6	0.0	-0.6
COC(=O)c1ccc(C(=O)OC)c(NC(=O)COC(=O)C23CC4CC(CC(O)(C4)C2)C3)c1
  -0.1	3.4	7.0	-7.6	0.6	1.0	-4.0	5.3
O=C(CN1C(=O)/C(=C/c2cccc(Br)c2)SC1=S)Nc1cccnc1
  -0.7	-7.3	8.1	5.9	-4.1	-1.4	2.8	-12.6

Additional results.
Order of results – Bfl-1 A1 inh	Beta2AR agonist	Calb FLC	Beta apoptosis	T cruzi inh	RanGTP-Impb inh	UCH37 inh	LANA-H2B inh
CCN(CC)S(=O)(=O)c1ccc(-c2nnc(SCC(=O)Nc3ccc(OC)c(OC)c3)o2)cc1
  1.4	9.7	?	-1.9	-1.5	2.8	6.1	-0.4
Cc1c(C(=O)N(Cc2ccc(N(C)C)cc2)C2CCS(=O)(=O)C2)oc2ccccc12 (stereo unspecified)
  -1.3	-15.3	6.0	3.4	18.4	-0.7	5.5	-2.5
O=C(COC(=O)CNC(=O)C1CCCCC1)Nc1ccc2c(c1)OCCO2
  0.4	3.7	1.4	1.3	-11.8	-1.9	0.7	1.0
S=C1NCCNC(=S)NCCOCCOCCOCCN1
  0.1	6.5	-15.5	-4.8	2.7	7.0	4.3	-3.7
O=C(NNC(=O)C1CCCO1)c1ccc(Br)cc1 (stereo unspecified)
  -1.6	3.8	-4.8	6.4	-46.3	?	-0.1	-0.3
Cc1ccc2nc(SCC(=O)N3CC(C)OC(C)C3)nc(=O)n2c1 (stereo unspecified)
  -1.5	-2.3	2.3	-8.1	-6.8	0.0	-9.4	-0.4
Oc1ccc(-c2nnc(Nc3cccc(O)c3)c3ccccc23)cc1
  -0.8	-6.9	-2.1	-1.9	13.0	-5.2	-7.2	-1.2
COc1ccc(OCC(=O)Nc2ccc(N3CCOCC3)cc2)c([N+](=O)[O-])c1
  -0.6	3.9	0.9	18.9	8.2	-6.3	0.1	-3.1
COc1ccc(-c2noc3c2-c2nc(-c4ccccc4F)sc2CC3)cc1
  0.7	1.3	14.8	3.8	-16.0	?	0.0	2.9
Cc1nnc(SCc2cc([N+](=O)[O-])cc3c2OCOC3)n(N)c1=O
  0.5	0.4	-5.1	-4.8	-9.6	7.8	3.8	5.6

New compounds follow.
Order of results – Bfl-1 A1 inh	Beta2AR agonist	Calb FLC	Beta apoptosis	T cruzi inh	RanGTP-Impb inh	UCH37 inh	LANA-H2B inh
O=C(Nn1cnnc1)c1cc2c(s1)CCCCC2
  -0.8	4.7	-4.1	-3.4	-12.6	-2.1	3.3	0.4
CCCCN1CC[C@H]2C=CC[C@@H](C(=O)NCCc3ccccc3)[C@H]2C1=O
  -0.1	-5.7	-8.4	0.4	-3.4	1.1	1.6	2.6
Cc1cc(C(C)(C)C)cc(S(=O)(=O)NCCO)c1C
  -0.1	0.4	4.4	-4.4	-1.2	1.9	3.2	5.8
CCN(CC)S(=O)(=O)c1ccc(/C(O)=C(\C#N)c2nc3ccccc3n2C)cc1
  -0.2	-4.5	12.1	14.3	24.1	1.9	nt	-6.7
CCn1cc(CNC(=O)c2cc(-c3cc(OC)ccc3OC)nc3ccccc23)c(C)n1
  -0.1	-12.0	6.6	7.9	-10.0	2.5	2.3	-1.9
COc1cc(/C=C/C(=O)N2CCC=CC2=O)cc(OC)c1OC
  1.0	21.9	nt	8.0	nt	nt	-0.7	1.5
CCN(CC)CCN(C(=O)c1ccc(N2C(=O)CCC2=O)cc1)c1nc2cc3c(cc2s1)OCCO3
  0.7	6.8	-7.5	-4.3	53.6	2.4	7.0	-3.2
COc1ccc(N2CCN(C(=O)CCc3c[nH]c4ccccc34)CC2)cc1
  2.7	3.9	-3.7	-1.8	1.2	6.3	1.6	-1.1
CC1(C)N=C(N)N=C(N)N1c1ccc(F)cc1F
  0.5	-4.7	20.4	-0.4	-5.6	-1.5	0.6	-3.5
Cc1ccc(NC(=O)CCn2cccc2)cc1C
  0.2	9.2	0.8	-4.0	-10.3	-2.3	3.5	0.4

Continuation:
Order of results – Bfl-1 A1 inh	Beta2AR agonist	Calb FLC	Beta apoptosis	T cruzi inh	RanGTP-Impb inh	UCH37 inh	LANA-H2B inh
COc1cccc(N2C(=O)CC(c3c[nH]c4ccccc34)C2=O)c1 (stereo unspecified)
  1.9	8.0	-10.0	-3.1	-4.7	-3.1	-1.4	-0.5
O=C(COCc1cc(-c2ccc3c(c2)OCO3)on1)Nc1cccnc1
  -0.7	-0.5	30.8	-2.4	-13.4	2.0	2.9	-0.9
C=CCC1C=C(Cc2ccccc2)CC(CC=C)N1 (stereo unspecified)
  0.7	-3.5	-8.5	3.7	17.2	-4.7	4.1	-1.2
CC1CCCN(C(=O)COC(=O)C2CCN(S(=O)(=O)c3ccc4c(c3)OCCO4)CC2)C1 (stereo unspecified)
  0.4	1.8	-4.0	-3.5	-2.8	6.2	3.9	1.1
Cc1sc2nc(C3CC3)nc(N3CCN(C(=O)c4ccc(F)cc4)CC3)c2c1C
  0.4	-8.0	-2.7	4.2	32.6	0.9	6.1	-4.0
CN(C(=O)c1ccccc1C(=O)OCC(=O)NCc1ccccc1)C1CCCCC1
  -0.2	6.2	-17.6	-5.5	-7.5	5.8	1.1	2.7
CCCCCC(O)(c1ccccc1)C(CN1CCOCC1)c1ccccc1 (stereo unspecified)
  -0.1	-1.5	4.0	4.4	-10.6	-1.1	-0.1	-0.4
CC(=O)NC(CC(=O)OCC(=O)NCCc1ccccc1)c1ccccc1 (stereo unspecified)
  -0.9	-6.8	-4.7	-1.5	-1.6	-1.8	4.5	-3.1
CSc1nsc(SCC(=O)Nc2ccc(Br)cn2)n1
  -1.0	10.3	-1.7	-9.2	29.3	1.4	2.8	-1.9
COc1cccc(/C=N/c2nc3ccccc3[nH]2)c1O
  -0.2	-0.8	-13.1	nt	19.3	6.4	nt	-0.4

Next part:
Order of results – Bfl-1 A1 inh	Beta2AR agonist	Calb FLC	Beta apoptosis	T cruzi inh	RanGTP-Impb inh	UCH37 inh	LANA-H2B inh
CC(C)/C=N\NC(=O)CCCCC(=O)N/N=C/C(C)C
  -0.8	-5.2	4.5	-2.4	-2.9	2.0	nt	0.8
Cc1ccc(C)c(-c2nnc(NC(=O)CCS(=O)(=O)c3ccccc3)o2)c1
  -0.4	7.5	-7.6	-3.3	-16.7	-3.0	-0.1	8.5
O=C(Nc1cccn(Cc2ccc(F)cc2)c1=O)NC1CCCCC1
  -1.1	-12.4	7.2	1.6	6.7	-1.6	-12.3	0.1
Cc1cccc(N(C)C(=O)c2cc(S(=O)(=O)N3CCCC3)cn2C)c1
  nt	-3.0	-2.9	-2.8	-15.9	1.7	3.5	-4.5
CCc1nonc1NC(=O)c1oc2cc(Br)ccc2c1C
  1.0	-1.3	2.8	-2.7	-6.6	1.3	2.6	-6.3
COc1ccc(/C=C2/SC(=S)N(CCCC(=O)N3CCN(C)CC3)C2=O)cc1
  0.7	9.6	-0.1	4.8	15.3	-0.7	7.5	-1.7
